TRPV1 PAM: HTS Assay for Compounds that Act as Potentiators of the Vanilloid Receptor 1; AID 540277, 2011; Transient receptor potential cation channel subfamily V member 1 (Homo sapiens), Q8NER1; potentiation, % at 8.33 µM; 320,000 compounds, 0.02% hits; TRPV1-expressing cells, Fluo-8 calcium influx, capsaicin EC20 potentiation; host cell line not named in the record; control for the full effect not named in the record; active means potentiation above 80%; inconclusive means 30% to 80%; inactive means below 30%; note: 0% is about no effect
Target sequence (Q8NER1 whole entry, looked up): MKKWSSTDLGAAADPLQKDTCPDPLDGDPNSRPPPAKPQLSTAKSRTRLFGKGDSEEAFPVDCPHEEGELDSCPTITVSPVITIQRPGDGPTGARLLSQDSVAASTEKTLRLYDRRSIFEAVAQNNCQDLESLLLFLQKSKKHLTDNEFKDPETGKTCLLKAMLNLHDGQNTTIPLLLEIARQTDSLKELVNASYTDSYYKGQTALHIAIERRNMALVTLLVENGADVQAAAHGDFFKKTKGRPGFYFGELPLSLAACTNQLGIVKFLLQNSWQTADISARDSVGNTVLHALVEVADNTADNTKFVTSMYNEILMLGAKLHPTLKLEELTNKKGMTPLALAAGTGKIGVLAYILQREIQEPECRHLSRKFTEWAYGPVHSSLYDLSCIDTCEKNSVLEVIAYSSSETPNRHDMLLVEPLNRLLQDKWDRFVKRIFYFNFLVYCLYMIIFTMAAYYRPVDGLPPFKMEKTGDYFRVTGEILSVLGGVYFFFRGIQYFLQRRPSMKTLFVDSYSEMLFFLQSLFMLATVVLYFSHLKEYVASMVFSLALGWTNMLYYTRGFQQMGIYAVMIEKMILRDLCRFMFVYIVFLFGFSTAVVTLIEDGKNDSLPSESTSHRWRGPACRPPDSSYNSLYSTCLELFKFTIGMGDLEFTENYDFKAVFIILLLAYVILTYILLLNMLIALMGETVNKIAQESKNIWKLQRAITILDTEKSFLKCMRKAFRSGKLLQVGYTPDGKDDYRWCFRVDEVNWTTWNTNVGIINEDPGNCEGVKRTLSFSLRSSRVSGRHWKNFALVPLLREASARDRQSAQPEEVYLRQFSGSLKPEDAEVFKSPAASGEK
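Fluo-8 calcium influx in TRPV1-expressing cells, kinetic read (ex 480/em 520 nm). Compound added and read 3 min for agonist activity, followed by capsaicin at EC20 final and 2 min further read for enhancement.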
D2 agonist: Beta-Arrestin HTS for Positive Allosteric Modulators of the Human D2 Dopamine Receptor: Agonists; D(2) dopamine receptor (Homo sapiens), P14416; DiscoveRx PathHunter D2 beta-arrestin, luminescence, 90 min; 100% = 57 uM dopamine signal; activation, % (test concentration not listed); 360,000 compounds, 0.084% hits; in the data active = activation above about 40%; inconclusive = about 15% to 40%; inactive = below about 15%; note: compound concentration not given in the record; the text of the record calls up to 30% inactive
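Agonist mode: compounds alone added to overnight-plated D2 PathHunter cells for 90 min at 37 C, with 57 uM final dopamine (EC100) defining full response. Beta-arrestin recruitment detected by chemiluminescent reagent, read after 1 h at ambient temperature.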
D2 PAM: Beta-Arrestin HTS for Positive Allosteric Modulators of the Human D2 Dopamine Receptor: Potentiators. D(2) dopamine receptor (Homo sapiens), P14416. DiscoveRx D2 beta-arrestin cells, luminescence, 90 min; 100% = 57 uM dopamine signal. potentiation, % (concentration not given with the values). 360,000 compounds, 0.23% hits; active = potentiation of 50% or more; inconclusive = 30% to 50%; inactive = 30% or less;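 note: tested on top of an EC20 dose of dopamine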
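D2 cells co-treated with compound plus 50 nM dopamine (EC20) for 90 min at 37 deg C to detect potentiation. Beta-arrestin recruitment was read as enzyme-fragment luminescence after 1 h at ambient temperature. Full response was set by 57 uM dopamine.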
CtBP-E1A blk: qHTS Assay for Inhibitors of the CtBP/E1A Interaction. CtBP / adenovirus E1A interaction (AlphaScreen). AlphaScreen GST-E1A/His-CtBP binding, 1536-well; active compounds read low; control for the full effect not named in the record. activity change, % (no concentration beside the values). 340,000 compounds, 0.49% hits. AID 651724, 2012; in the data active means activity change below about -65%; inconclusive means about -30% to -65%; inactive means above about -30%; note: % is set by controls: 0 for no effect and ±100 for the full control effect
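Homogeneous bead-based format: GST-tagged E1A captured on glutathione donor beads, His-tagged CtBP on nickel acceptor beads; compounds precede bead addition by 2 h at 37 °C.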
Six1-Eya2 blk: qHTS Assay for Inhibitors of the Six1/Eya2 Interaction | Homeobox protein SIX1 (Homo sapiens) + Protein phosphatase EYA2 (Homo sapiens), … | AlphaScreen GST-Six1/His-Eya2 binding, biochemical; active compounds read low; control for the full effect not named in the record | activity change, % (test concentration not listed) | 360,000 compounds, 0.56% hits | AID 651725, 2012; in the data active = activity change below about -65%; inconclusive = about -30% to -65%; inactive = above about -30%; note: % is set by controls: 0 for no effect and ±100 for the full control effect
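AlphaScreen with GST-Six1 and His-Eya2 (5X mix: 250 nM and 500 nM), glutathione donor and nickel acceptor beads; buffer 50 mM Tris pH 8.0, 300 mM NaCl, 1 mM TCEP; 1 h at 37 C in the dark.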
PINK1 expr mod: A Quantitative High throughput Screen to Identify Chemical Modulators of PINK1 Expression | PINK1 immunofluorescence, high-content cytometry, 24 h | AID 624263, 2012 | Potency, µM (top dose mostly 76.6 µM), inactives show at the top dose activation (PINK1 increase), most hits filed as activators | 410,000 compounds, 0.2% hits; active = well fitted activation curve with a large enough effect; inconclusive = small, poorly fitted or top-dose-only effect; inactive = flat fitted curve, though single readings scatter; cell line not stated here;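 note: potency is the fitted concentration of half-maximal effect; % of control where 0% means no effect; nearly all actives have a fitted effect of over 65% in size; a mitochondrial uncoupler was the plate control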
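Cells are seeded, rested 12 hours, then given compound at five concentrations or DMSO for 24 hours. After fixation, blocking and antibody staining, PINK1 amount and mitochondrial localization are scored; CCCP serves as control.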
Sfp PPTase inh: qHTS Assay for Inhibitors of Bacillus subtilis Sfp phosphopantetheinyl transferase (PPTase) | Biochemical Sfp PPTase activity, qHTS | Potency, µM, for the others: max response, negative = inhibition, actives largely listed as inhibitors | 310,000 compounds, 3.5% hits | 4'-phosphopantetheinyl transferase ffp (Bacillus subtilis), Q9F4F7; active = well fitted inhibition curve with a large enough effect; inconclusive = small, poorly fitted or top-dose-only effect, or another doubt; inactive = no such curve, though single readings can be large or run the other way;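 note: the enzyme is Sfp with the accession as filed and its product quenches rhodamine fluorescence; potency is the fitted concentration of half-maximal effect; 0% = enzyme reaction without inhibitor and -100% = no enzyme wells; top concentration of the series not given in the record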
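Fluorescence-quenching assay with 15 nM Sfp, 5 uM rhodamine-CoA and 12.5 uM BHQ-2-labelled ybbR peptide in pH 7.6 Hepes/MgCl2 buffer. Enzyme was pre-incubated with compound for 15 min at room temperature. Rate was taken from the 30-min fluorescence change (525/598 nm).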
* hit, by the source's call; [ ] = remark or other dose. Not a hit list. Share with any hit: about 3.7%.

How did COc1cccc(C(C(=O)NC2CCCC2)N(CC2CCCO2)C(=O)Cc2cccs2)c1 (stereo not drawn) do in these assays?
TRPV1 PAM: -5.2; D2 agonist: -1.5; D2 PAM: 1.2; CtBP-E1A blk: 8.3; Six1-Eya2 blk: 1.5; PINK1 expr mod: 1.0%; Sfp PPTase inh: 13.4%

How did Cc1nnsc1C(=O)N/N=C/c1cccc(C(F)(F)F)c1 do in these assays?
TRPV1 PAM: 5.9; D2 agonist: 0.2; D2 PAM: 1.5; CtBP-E1A blk: 3.9; Six1-Eya2 blk: 0.0; PINK1 expr mod: -0.3%; Sfp PPTase inh: 4.3%

How did CC(=O)CCc1c(C)nc2ccc(C(=O)O)cc2c1Cl do in these assays?
TRPV1 PAM: 8.1; D2 agonist: -5.2; D2 PAM: 0.0; CtBP-E1A blk: -24.7; Six1-Eya2 blk: -14.6; PINK1 expr mod: 2.8%; Sfp PPTase inh: 5.7%

What do the screens show for `COc1ccc(C(=O)NCC(O)CN2CCOCC2)cc1[N+](=O)[O-]` (stereo not drawn)?
TRPV1 PAM: -12.1; D2 agonist: -5.0; D2 PAM: -3.9; CtBP-E1A blk: -11.3; Six1-Eya2 blk: 3.2; PINK1 expr mod: -1.1%; Sfp PPTase inh: 14.9%

What do the screens show for `COc1ccc(C(=O)Nc2cccc(NC(=O)c3ccc(OC)c(OC)c3)n2)cc1OC`?
TRPV1 PAM: -9.5; D2 agonist: 5.1; D2 PAM: 85.3*; Six1-Eya2 blk: -2.4; PINK1 expr mod: 1.1%; Sfp PPTase inh: 17.0%

Results for CCC12CN3CC(CC)(CN(C1)C3c1ccc(OC(C)C)cc1)C2=O (stereo not drawn) ?
TRPV1 PAM: -9.4; D2 agonist: -0.7; D2 PAM: 17.7; CtBP-E1A blk: 1.8; Six1-Eya2 blk: 2.5; PINK1 expr mod: -0.9%; Sfp PPTase inh: 4.0%

How did Cc1ccc2oc(-c3ccc(NC(=O)c4ccncc4)cc3O)nc2c1 do in these assays?
TRPV1 PAM: 14.3; D2 agonist: 1.3; D2 PAM: -3.9; Six1-Eya2 blk: -1.4; PINK1 expr mod: 14.1%; Sfp PPTase inh: 6.1%

Results for O=C(Cc1ccc(Cl)cc1)Nc1ccc(SC(F)F)cc1 ?
TRPV1 PAM: -3.1; D2 agonist: -4.2; D2 PAM: -16.7; CtBP-E1A blk: 12.6; Six1-Eya2 blk: 10.0; PINK1 expr mod: 18.5%; Sfp PPTase inh: 7.1%

Results for C[C@@H]1CN([C@H](C)CO)C(=O)CCCn2nncc2CO[C@@H]1CN(C)S(=O)(=O)c1ccc2ccccc2c1 ?
D2 agonist: 1.1; CtBP-E1A blk: -15.2; Six1-Eya2 blk: -2.9; PINK1 expr mod: 2.5%

Results for CC(=O)c1ccc(N2CCN(C(=S)Nc3ccccc3)CC2)cc1 ?
TRPV1 PAM: -5.5; D2 agonist: 4.3; D2 PAM: 0.7; CtBP-E1A blk: -9.4; Six1-Eya2 blk: -0.7; PINK1 expr mod: -0.6%; Sfp PPTase inh: 3.0%

Results for O=C(N/N=C\c1ccccc1)c1ccccc1-n1cccc1 ?
TRPV1 PAM: 3.0; D2 agonist: 7.4; D2 PAM: -0.4; CtBP-E1A blk: 0.0; Six1-Eya2 blk: -7.5; PINK1 expr mod: 1.3%; Sfp PPTase inh: 16.2%

Results for Cc1ccccc1-c1nc(CN2CCC(C(=O)NCCCN3CCOCC3)CC2)c(C)o1 ?
TRPV1 PAM: 3.7; D2 agonist: -0.9; D2 PAM: -13.6; CtBP-E1A blk: 2.7; Six1-Eya2 blk: 2.4; PINK1 expr mod: -23.7%[38.3 µM]; Sfp PPTase inh: 19.5%

Results for COc1cc(C2N(c3ccc(Cl)cc3)C(=O)C3CCCN32)cc(OC)c1OC (stereo not drawn) ?
TRPV1 PAM: 4.5; D2 agonist: -1.1; D2 PAM: -2.6; CtBP-E1A blk: 3.7; Six1-Eya2 blk: 6.3; PINK1 expr mod: -0.3%; Sfp PPTase inh: 26.9%

How did COc1ccccc1N1CCN(C(=O)c2cc(C3CC3)on2)CC1 do in these assays?
TRPV1 PAM: -10.9; D2 agonist: -4.8; D2 PAM: -0.4; CtBP-E1A blk: 4.1; Six1-Eya2 blk: -5.5; PINK1 expr mod: -1.3%; Sfp PPTase inh: -7.6%

Results for O=C(C1CCCO1)N1CCN(c2c3c(nc4cc(-c5ccc(F)cc5)nn24)CCC3)CC1 (stereo not drawn) ?
TRPV1 PAM: -4.4; D2 agonist: 0.4; D2 PAM: -2.3; CtBP-E1A blk: 3.2; Six1-Eya2 blk: 2.1; PINK1 expr mod: 1.7%[38.3 µM]; Sfp PPTase inh: 4.3%

What do the screens show for `CNC(=O)C[C@@H]1C(=O)N(C2CCCCC2)CC1(C)C`?
D2 agonist: -1.7; D2 PAM: -0.7; CtBP-E1A blk: -2.5; Six1-Eya2 blk: 13.5; PINK1 expr mod: -0.8%

How did Cc1ccsc1-c1nc(C(N)=O)c2[nH]c(=O)n(-c3ccc(Cl)cc3)c2n1 do in these assays?
TRPV1 PAM: 7.5; D2 agonist: 0.3; D2 PAM: -1.6; CtBP-E1A blk: inconclusive; Six1-Eya2 blk: -22.1; PINK1 expr mod: 15.4%; Sfp PPTase inh: -6.2%

How did O=C(Cn1cncn1)c1ccccc1Br do in these assays?
TRPV1 PAM: -8.8; D2 agonist: 6.9; D2 PAM: -1.1; CtBP-E1A blk: 2.5; Six1-Eya2 blk: -1.0; PINK1 expr mod: -0.9%; Sfp PPTase inh: 9.4%

How did O=C(O)c1cccc(Nc2c([N+](=O)[O-])c(=O)oc3ccccc23)c1 do in these assays?
D2 agonist: 0.7; D2 PAM: -7.7; CtBP-E1A blk: 4.1; Six1-Eya2 blk: 2.0; PINK1 expr mod: 2.6%; Sfp PPTase inh: 14.0%

What do the screens show for `Cc1ccc(C2CC(=O)NC(SCC(=O)Nc3nccs3)=C2C#N)cc1` (stereo not drawn)?
TRPV1 PAM: -9.4; D2 agonist: -11.4; D2 PAM: -3.2; CtBP-E1A blk: -0.4; Six1-Eya2 blk: -10.4; PINK1 expr mod: 1.3%; Sfp PPTase inh: 5.4%

Results for COc1ccc(-c2cc(C#N)nc(N3CCN(C)CC3)n2)cc1 ?
TRPV1 PAM: 2.7; D2 agonist: -3.6; D2 PAM: -20.1; CtBP-E1A blk: 0.3; Six1-Eya2 blk: -3.2; PINK1 expr mod: 6.9%; Sfp PPTase inh: inconclusive

Results for CCOC(=O)c1ccc(NC(=O)C2CCN(C(=O)c3ccc(OC)c(OC)c3)CC2)cc1 ?
TRPV1 PAM: -1.7; D2 agonist: 0.9; D2 PAM: -1.5; CtBP-E1A blk: -7.3; Six1-Eya2 blk: -0.9; PINK1 expr mod: 0.1%; Sfp PPTase inh: 17.4%

Results for NC(=O)CSc1nnc(Cn2c(=O)sc3ccccc32)n1-c1ccccc1 ?
TRPV1 PAM: -3.7; D2 agonist: -4.5; D2 PAM: -3.5; CtBP-E1A blk: 1.9; Six1-Eya2 blk: 0.7; PINK1 expr mod: 3.8%; Sfp PPTase inh: 23.0%

How did CC(C)c1ccc(/C=N/n2c(-c3ccccc3)n[nH]c2=S)cc1 do in these assays?
TRPV1 PAM: -9.5; D2 agonist: -6.8; D2 PAM: -46.8; Six1-Eya2 blk: 0.6; PINK1 expr mod: 9.0%; Sfp PPTase inh: -7.8%

How did Cc1onc(-c2c(Cl)cccc2Cl)c1C(=O)NCCc1ccncc1 do in these assays?
TRPV1 PAM: 29.6; D2 agonist: -2.0; D2 PAM: 10.0; CtBP-E1A blk: 1.5; Six1-Eya2 blk: -0.7; PINK1 expr mod: 5.3%; Sfp PPTase inh: -3.1%

Results for CC(C)CCNC(=O)CN(CCN1CCOCC1)C(=O)Cn1nnc(-c2ccc(F)cc2)n1 ?
TRPV1 PAM: inconclusive; D2 agonist: -1.6; D2 PAM: -7.6; CtBP-E1A blk: 0.0; Six1-Eya2 blk: 0.5; PINK1 expr mod: 3.2%[38.3 µM]; Sfp PPTase inh: 23.5%

Results for O=[N+]([O-])c1ccc(/C=N/Nc2ccccn2)cc1 ?
TRPV1 PAM: 3.9; D2 agonist: -9.3; D2 PAM: -7.1; CtBP-E1A blk: -13.4; Six1-Eya2 blk: 0.0; PINK1 expr mod: 8.1%; Sfp PPTase inh: -11.5%

How did COc1ccccc1N1CCN(C(=O)CSc2nnc(NC(=O)C3CCC3)s2)CC1 do in these assays?
TRPV1 PAM: -2.5; D2 agonist: -1.1; D2 PAM: 2.2; CtBP-E1A blk: -1.8; Six1-Eya2 blk: 1.8; PINK1 expr mod: -1.0%; Sfp PPTase inh: 2.2%

Results for COc1ccc(Nc2nc(N)nc(CSCCO)n2)cc1 ?
TRPV1 PAM: -7.4; D2 agonist: 3.5; D2 PAM: 19.8; CtBP-E1A blk: 9.4; Six1-Eya2 blk: 3.9; PINK1 expr mod: -1.6%; Sfp PPTase inh: 12.2%

Results for CCC(=O)NC(=S)Nc1ccc(S(=O)(=O)N2CCN(C)CC2)cc1 ?
TRPV1 PAM: -7.7; D2 agonist: -2.4; D2 PAM: -4.1; CtBP-E1A blk: 2.5; Six1-Eya2 blk: 8.6; PINK1 expr mod: 0.9%; Sfp PPTase inh: 2.3%

How did Cc1ccc(C(c2sc3nc(C)nn3c2O)N2CCOCC2)cc1 (stereo not drawn) do in these assays?
TRPV1 PAM: -12.2; D2 agonist: -3.2; D2 PAM: 0.7; CtBP-E1A blk: -2.3; Six1-Eya2 blk: 2.8; PINK1 expr mod: -0.6%; Sfp PPTase inh: 8.1%

How did CC12CCC(=O)N1C(C(=O)NNC(=O)c1ccccc1F)CS2 (stereo not drawn) do in these assays?
TRPV1 PAM: -0.6; D2 agonist: 0.8; D2 PAM: -1.9; CtBP-E1A blk: -21.6; Six1-Eya2 blk: -28.8; PINK1 expr mod: 1.9%
